Screens: PubChem BioAssay, National Center for Advancing Translational Sciences (NCATS)
VACV Venus inh: vaccinia inhibition (Venus reporter) | Vaccinia virus Venus reporter expression, fluorescence | Potency, µM (highest dose often 36.5 µM), for the others: at the top dose activity change, negative = inhibition, hits mostly inhibitors | 330,000 compounds, 0.46% hits; active means well fitted inhibition curve with a large enough effect; inconclusive means small, poorly fitted or top-dose-only effect; inactive means no such curve, though single readings can be large or run the other way; tested in A549 cells; also: nearly all actives have a fitted effect of over 30% in size; inactives centre near -10
VACV mCherry inh: vaccinia inhibition (mCherry reporter). Vaccinia virus mCherry reporter infection, fluorescence; about a quarter of the inactives have no number. Potency, µM (titrated, usually from 36.5 µM), for inactives: at the highest dose activity change, negative = inhibition, most hits filed as inhibitors. 310,000 compounds, 0.63% hits; active = well fitted inhibition curve with a large enough effect; inconclusive = small, poorly fitted or top-dose-only effect; inactive = no such curve, though single readings can be large or run the other way; tested in A549 cells; also: nearly all actives have a fitted effect of over 35% in size; inactives centre near -10
* = called active by the depositor; i = inactive; ? = inconclusive; . = no result given; & = joins results of further samples; [ ] = remark or other dose. % is scaled to controls: 0 for no effect and ±100 for the full control effect; potency is read from the fitted curve at half-maximal effect.

SMILES	VACV Venus inh	VACV mCherry inh
COc1cc(-c2cc(=O)c3ccccc3o2)ccc1O	7.8%	i
Cc1ccc(S(=O)(=O)NCc2nnnn2-c2ccc(F)cc2)cc1	-3.9%	i
O=C(CSc1nnc(-c2ccncc2)o1)Nc1ccccc1Cl	-12.3%	.
N#Cc1c(N2CCOCC2)nc(-c2ccco2)c2c1CCCC2	-3.8%	-2.5%
O=C(C1CCN(c2nnc(-n3cccc3)s2)CC1)N1CCN(c2cccc(C(F)(F)F)c2)CC1	-30.0%	.
COc1ccc(OC)c(-c2cc(C(=O)NCc3cccs3)no2)c1	-17.1%	-27.0%
CCCCCc1c(-c2cccc(Cl)c2)ncn1CCc1ccccc1OC	0.0%	0.6%
CC(=O)c1cccc(NC(=O)CCS(=O)(=O)c2cc(Br)cc3c2N(C(=O)C2CC2)CC3)c1	-1.4%	-13.2%
COc1ccc(-n2ncc(C(=O)NCc3ccccc3)c2C2CCN(C(=O)OC(C)(C)C)CC2)cc1	-17.9%	-14.5%
CC1=C(C(=O)OCC2CCCCC2)C(c2c(F)cccc2Cl)CC(=O)N1 (stereo not drawn)	-14.1%	-6.3%
Cc1ccc(Nc2cc(C)c(C#N)c3nc4ccccc4n23)cc1Cl	-8.5%	-25.1%
CCOC(=O)NN1C(=O)c2ccccc2NC1c1ccc(N(C)C)cc1 (stereo not drawn)	-8.5%	-13.0%
COc1ccc(NC(=O)Cn2cnc3ccc(S(=O)(=O)N4CCC(C)CC4)cc3c2=O)cc1OC	-5.8%	-2.1%
S=C(NCCc1ccccc1)N1Cc2cc(N3CCOCC3)ccc2-n2nncc2C1	2.0%	i
CC(C)c1nnc(NC(=O)COc2ccc3ccccc3c2)s1	-6.6%	-6.5%
COc1cc(C(=O)c2cocc2C(=O)c2ccc3c(c2)OCO3)cc(OC)c1OC	-18.1%	-29.6%
CC(=O)N1N=C(c2ccc(Br)cc2)OC1(C)CC(=O)Nc1ccccc1 (stereo not drawn)	-27.4%	?
O=S(=O)(CCNCc1ccco1)NC1CCCCC1	-10.6%	i
O=C1C[C@@H]2c3c(cccc3CN1Cc1ccccc1)C[C@@H](O)[C@H]2O	-9.8%&-11.0%	-1.3%
Oc1ccc(-c2nccs2)cc1	-18.2%	?
Cn1cccc1/C=N/n1c(-c2ccc(C(C)(C)C)cc2)n[nH]c1=S	-12.0%	.
COc1ccc(NC(=O)C2(C)Cc3c(-c4ccc(C(N)=O)cc4)ccnc3O2)cc1OC (stereo not drawn)	2.7%	i
COc1cccc(CC2(CO)CCCN(Cc3cn[nH]c3-c3ccc(F)cc3)C2)c1 (stereo not drawn)	3.4%	-25.1%
CCOC(=O)C1=C(C)NC2=C(C(=O)CC(C)(C)C2)C1c1ccc2c(c1)CCCN2C (stereo not drawn)	-15.3%	.
C[C@@H](NC(=O)OC(C)(C)C)c1nnc(S(=O)(=O)Cc2ccccc2)o1	?	?

The listing continues.
SMILES	VACV Venus inh	VACV mCherry inh
Cc1nn(C)c(C)c1CCC(=O)NC1CC(C)(C)Cc2c1cnn2-c1ccccc1 (stereo not drawn)	-15.1%	-12.7%
O=c1c2ccccc2nc(/C=C/c2cccc3ccccc23)n1-c1ccc(F)cc1F	-17.3%	-15.0%
CC1SC(c2ccc(Cl)cc2)NC1=O (stereo not drawn)	-8.0%	.
O=C(CCc1ccccc1)NCc1ccc2c(c1)OCO2	-14.1%	i
O=C(c1csc2c1CCCC2)n1cccn1	-3.8%	-19.7%
O=C(Nc1ccc(OC(F)F)cc1)c1nc(S(=O)(=O)Cc2ccccc2F)ncc1Cl	?	?
CCN(CC)c1ccc(N)cc1	-20.2%	?
O=C(c1ccc(NC(=S)NCc2ccco2)cc1)N1CCCCC1	-2.6%	-8.0%
C[C@H](NC(=O)c1nc[nH]c1C(=O)NCC(=O)OCc1ccccc1)c1ccccc1	-13.0%	i
Cc1ccc(NS(=O)(=O)c2ccc(C)c(NC(=O)c3ccc(S(=O)(=O)N4CCCCCC4)cc3)c2)c(C)c1	?	-15.5%
CCC1COCCS(=O)(=O)N1Cc1cccc(C(F)(F)F)c1 (stereo not drawn)	-19.3%&-24.4%	i
Cc1ccccc1N1CCN(C2CCCN(C(=O)c3snnc3C)C2)CC1 (stereo not drawn)	-13.9%	-15.1%
CCN(C(=O)CSc1nnc(Cn2nnc3ccccc32)o1)c1nc(C)cs1	?	?
FC(F)(F)c1ccccc1CCN1CCNCC1	-2.8%	-23.4%
COc1ccc(OC)c(CNS(=O)(=O)c2ccc3[nH]c4c(c3c2)CCCCC4)c1	-22.0%	?
COc1ccccc1CN(Cc1cc2cc(C)ccc2[nH]c1=O)Cc1nnnn1CC1CCCO1 (stereo not drawn)	-21.4%	-15.8%
O=C(NCCN1CCOCC1)c1cc(Br)ccc1Cl	-14.8%	-24.0%
COC(=O)C1(C(=O)OC)c2ccccc2N(S(=O)(=O)c2ccc(C)cc2)C1CC(C)=O (stereo not drawn)	-2.5%	-3.9%
CC(C)(C)c1ccc(CC(=O)N2CCC2(C)C(=O)NCc2ccc3c(c2)OCO3)cc1 (stereo not drawn)	?	-23.8%
Cc1nc(-c2ccc(S(=O)(=O)N3CCOCC3)cc2)cs1	-15.3%	-1.3%
COc1cccc(OCCCCn2c(-c3ccc(Cl)cc3)nc3ccccc3c2=O)c1	-1.5%	-11.1%
Cn1nc(C(C)(C)C)cc1NC(=O)C1(C)CCN1C(=O)Cc1ccc(-c2ccccc2)cc1 (stereo not drawn)	-9.9%	0.3%
Cc1cc(OC(C)C(=O)NCC(O)c2ccccc2)c2c(C)c(C)c(=O)oc2c1 (stereo not drawn)	2.0%[7.34 µM]	25.1%[7.34 µM]
COC(=O)c1ccc(NC(=O)C2CCN(S(C)(=O)=O)CC2)cc1	?	i
CN1CCc2c(sc(NC(=O)c3ccc([N+](=O)[O-])o3)c2C(N)=O)C1	2.24µM*	?

(listing goes on)
SMILES	VACV Venus inh	VACV mCherry inh
Cc1ccccc1Nc1nc(N)nc(COC(=O)c2cccc(S(=O)(=O)NCc3ccccc3)c2)n1	?	-10.4%
O=C(CCc1nc2cccnc2n1Cc1ccccc1)NCc1cccc(Cl)c1	-11.5%	-9.9%
N#Cc1ccccc1NC(=O)CC1CCCCC1	-5.6%	.
Cc1cc(=O)nc2c3ccccc3n(CC(=O)NCCCN3CCOCC3)n12	-10.0%	-10.2%
CCOc1ccccc1NC(=O)Cn1nnc(C(=O)NCc2cccs2)c1N	?	-14.2%
COc1ccc(NC(=O)c2cc(-c3ccc(C)o3)nc3ccccc23)cc1	-5.3%	-8.5%
Cn1cccc1CNC(=S)Nc1cc(F)cc(F)c1	-3.3%	1.1%
CCOC(=O)c1nn(-c2ccccc2C)c2nc(-c3ccc(C)cc3)c(C#N)c(=O)n12	1.0%	.
CC1(C)Cc2noc(N)c2C(C)(C)N1OC(=O)c1ccco1	-8.6%	-18.4%
Cc1ccc(C(=O)c2ccccc2C(=O)OCC(=O)NC(C)(C)C)cc1	-13.0%	-0.2%
Cc1nn(CC(C)C)c(Cl)c1C(=O)NC1CCCCC1	-27.4%	-29.5%
CC(C)C[C@@H](CN1CCC[C@@H]1CN1C(=O)C(=O)NC[C@@H]1Cc1ccc(O)cc1)N1C[C@H](Cc2ccc(O)cc2)N(CC2CCCCCC2)C(=O)C1=O	3.2%	0.5%
CCCN1C(=O)S/C(=C\c2ccc(N3CCOCC3)o2)C1=O	37.9%[activator]	?
Cc1csc(SCC(=O)NCC2Cc3cc(-c4cncnc4)ccc3O2)n1 (stereo not drawn)	-16.7%	-2.1%
COc1cc(OC)cc(C(=O)N[C@H](C(=O)OCC(=O)Nc2ccc(F)c(F)c2)C(C)C)c1	-17.1%	-15.4%
Cc1nnc(Nc2ccc(C(=O)N3CCOCC3)cc2)c2ccccc12	-8.0%	i
COC(=O)COc1ccc(S(=O)(=O)Nc2ccc(C(N)=O)cc2)cc1Cl	-7.5%	-13.8%
CCc1ccc(S(=O)(=O)N(C(=O)Oc2ccccc2)c2ccc3oc(C)c(C(=O)OC)c3c2)cc1	-18.4%[7.34 µM]	-21.0%[7.34 µM]
CCOc1ccc(NC(=O)COC(=O)C2COc3ccccc3O2)cc1 (stereo not drawn)	-10.7%	i
COC(=O)c1[nH]c2ccccc2c1NC(=O)CCN1CCSCC1	-14.1%	-11.4%
CC(C)=CCCC1(C)C=Cc2c(O)c3c(c(CC=C(C)C)c2O1)OC12C(=CC4CC1C(C)(C)OC2(C/C=C(/C)C(=O)O)C4=O)C3=O (stereo not drawn)	?	?
COc1ccc(Nc2ncnc3c2cnn3Cc2ccccc2)cc1OC	-26.4%	-1.3%
COc1ccc(C2=NC(C)(C)N(CC(=O)Nc3ccc(F)c(F)c3)C2=O)cc1	-9.1%	-10.3%
Cc1ccc(S(=O)(=O)N2CCCN(S(=O)(=O)c3ccc4c(c3)OCCO4)CC2)cc1	-9.0%	-9.2%
Cc1cc(F)ccc1-c1cc(C(=O)NC(C)C)[nH]n1	0.0%	-9.3%

Reprinted at random: 2 records from the list, in no set order.
SMILES	VACV Venus inh	VACV mCherry inh
CC(C)C[C@@H](CN1CCC[C@@H]1CN1C(=O)C(=O)NC[C@@H]1Cc1ccc(O)cc1)N1C[C@H](Cc2ccc(O)cc2)N(CC2CCCCCC2)C(=O)C1=O	3.2%	0.5%
Cc1cc(=O)nc2c3ccccc3n(CC(=O)NCCCN3CCOCC3)n12	-10.0%	-10.2%

Continuation:
SMILES	VACV Venus inh	VACV mCherry inh
Cc1cc(OCC(=O)NC(Cc2ccc(Cl)cc2)C(=O)O)c2c3c(c(=O)oc2c1)CCCC3 (stereo not drawn)	7.1%	3.1%
COCCCNC(=O)CSc1nc(-c2ccc(OC)cc2)[nH]c1-c1ccc(OC)cc1	-6.0%	-6.8%
COc1ccc(C2CC(=O)CCN2S(=O)(=O)c2ccc(C)cc2)cc1 (stereo not drawn)	-9.8%	-24.0%
CC1(C)CC(=O)c2sc(NC(=O)c3ccco3)nc2C1	2.7%	15.4%
Cc1ccccc1N(C)S(=O)(=O)c1nnc(NC(=O)C(C)C)s1	-10.0%	-11.2%
COc1cc(/C=C/C(=O)O)cc(S(=O)(=O)N(CC(C)C)CC(C)C)c1OC	-15.9%	-15.6%
CCOc1cc(CNCCSc2nnnn2C)cc(Cl)c1OCc1ccc(Cl)cc1	-23.7%	-0.5%
CC(/C=C1\SC(=Nc2cccnc2)NC1=O)=C\c1ccccc1	2.2%	-18.2%
COc1ccccc1S(=O)(=O)Cc1ccc(C(=O)N2CCN(c3ccc(C)cc3)C(C)C2)o1 (stereo not drawn)	?	-18.2%
COc1ccc(Cl)cc1NC(=O)CN(C)S(=O)(=O)c1ccc2c(c1)CCCN2C(C)=O	-12.6%	-18.5%
Cc1ccccc1NC(=O)CCc1c(C)nc2c(c1C)c(=O)n(C)c(=O)n2C	5.1%	1.7%
Cc1cc2c(c(=O)n1CCN(C)C)C(c1ccccc1Br)C(C#N)=C(N)O2 (stereo not drawn)	-24.0%	-10.7%[1.46 µM]
Cc1ccc(CNc2ncnc3c2c(-c2ccccc2)cn3-c2ccccc2)cc1	-2.7%	-17.5%

Of the compounds above, 20 have an aryl methoxy group:
SMILES	VACV Venus inh	VACV mCherry inh
COc1cc(-c2cc(=O)c3ccccc3o2)ccc1O	7.8%	i
COc1ccc(OC)c(-c2cc(C(=O)NCc3cccs3)no2)c1	-17.1%	-27.0%
CCCCCc1c(-c2cccc(Cl)c2)ncn1CCc1ccccc1OC	0.0%	0.6%
COc1ccc(-n2ncc(C(=O)NCc3ccccc3)c2C2CCN(C(=O)OC(C)(C)C)CC2)cc1	-17.9%	-14.5%
COc1ccc(NC(=O)Cn2cnc3ccc(S(=O)(=O)N4CCC(C)CC4)cc3c2=O)cc1OC	-5.8%	-2.1%
COc1cc(C(=O)c2cocc2C(=O)c2ccc3c(c2)OCO3)cc(OC)c1OC	-18.1%	-29.6%
COc1ccc(NC(=O)C2(C)Cc3c(-c4ccc(C(N)=O)cc4)ccnc3O2)cc1OC (stereo not drawn)	2.7%	i
COc1cccc(CC2(CO)CCCN(Cc3cn[nH]c3-c3ccc(F)cc3)C2)c1 (stereo not drawn)	3.4%	-25.1%
COc1ccc(OC)c(CNS(=O)(=O)c2ccc3[nH]c4c(c3c2)CCCCC4)c1	-22.0%	?
COc1ccccc1CN(Cc1cc2cc(C)ccc2[nH]c1=O)Cc1nnnn1CC1CCCO1 (stereo not drawn)	-21.4%	-15.8%
COc1cccc(OCCCCn2c(-c3ccc(Cl)cc3)nc3ccccc3c2=O)c1	-1.5%	-11.1%
COc1ccc(NC(=O)c2cc(-c3ccc(C)o3)nc3ccccc23)cc1	-5.3%	-8.5%
COc1cc(OC)cc(C(=O)N[C@H](C(=O)OCC(=O)Nc2ccc(F)c(F)c2)C(C)C)c1	-17.1%	-15.4%
COc1ccc(Nc2ncnc3c2cnn3Cc2ccccc2)cc1OC	-26.4%	-1.3%
COc1ccc(C2=NC(C)(C)N(CC(=O)Nc3ccc(F)c(F)c3)C2=O)cc1	-9.1%	-10.3%
COCCCNC(=O)CSc1nc(-c2ccc(OC)cc2)[nH]c1-c1ccc(OC)cc1	-6.0%	-6.8%
COc1ccc(C2CC(=O)CCN2S(=O)(=O)c2ccc(C)cc2)cc1 (stereo not drawn)	-9.8%	-24.0%
COc1cc(/C=C/C(=O)O)cc(S(=O)(=O)N(CC(C)C)CC(C)C)c1OC	-15.9%	-15.6%
COc1ccccc1S(=O)(=O)Cc1ccc(C(=O)N2CCN(c3ccc(C)cc3)C(C)C2)o1 (stereo not drawn)	?	-18.2%
COc1ccc(Cl)cc1NC(=O)CN(C)S(=O)(=O)c1ccc2c(c1)CCCN2C(C)=O	-12.6%	-18.5%
